Source: PubChem (several laboratories)
CBX7 AlphaScr = CBX7 inhibition, primary AlphaScreen; O95931; AlphaScreen His6-CBX7 / biotin-H3K27me3 peptide binding; stronger effect = lower value; normalised signal (fraction of DMSO) (concentration not given with the values); actives 1.1% (n = 66,000); in the data active = normalised signal below about 0.5;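 note: 100 nL library stock added to about 20 µL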
Target sequence (O95931 whole entry, looked up): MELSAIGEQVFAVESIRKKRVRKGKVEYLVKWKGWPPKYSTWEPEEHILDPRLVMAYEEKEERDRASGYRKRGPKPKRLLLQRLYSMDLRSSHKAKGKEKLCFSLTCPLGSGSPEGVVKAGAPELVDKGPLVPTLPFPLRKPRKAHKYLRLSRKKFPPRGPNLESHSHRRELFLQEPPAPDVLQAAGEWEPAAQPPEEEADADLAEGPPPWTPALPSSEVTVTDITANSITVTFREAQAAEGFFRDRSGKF
CBX7 AlphaScr z-score = second read-out of CBX7 AlphaScr, no call of its own (marks repeat the call); z-score; measured here: z-score of CBX7 signal; some inactives read as strong as hits; reference of the scale not given here;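 same signal on another scale; lower means less binding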
Active calls of the source: *. The list is partial. The share of hits here may be higher or lower than overall.

SMILES	CBX7 AlphaScr	CBX7 AlphaScr z-score
Cc1cccc(C)c1Nc1nnc(C(C)(C)C)c(=O)[nH]1	1.14	1.37
c1ccc(-c2cc(-c3nc(-c4ccccn4)no3)c3ccccc3n2)cc1	0.909	-0.121
O=C(NCc1ccc(Cl)cc1)C1CCN(S(=O)(=O)c2cnc[nH]2)CC1	0.895	-1.25
COc1ccccc1C(=O)NC(C)c1nc2ccccc2n1Cc1ccccc1C (stereo not drawn)	0.918	-2.73
CCOc1ccc2nc(Nc3nc(C)cc(=O)[nH]3)nc(C)c2c1	0.922	-0.0915
O=C1CN(C(=O)Cc2ccc(F)cc2)C(c2ccc(F)cc2)c2cc(F)ccc2N1 (stereo not drawn)	1.16	0.689
CC(NS(C)(=O)=O)C(c1cccs1)N1CCN(C)CC1 (stereo not drawn)	1.01	0.234
Cc1ccccc1-n1nc2c(c1NC(=O)COc1ccc(Cl)cc1Cl)CS(=O)(=O)C2	1.11	0.749
COc1ccc(CNC(=O)c2cn(C3CCCC3)c(=O)c3c2c2ccccc2n3C)c(OC)c1	0.827	-4.27
COc1ccc(-n2c3c(cc(C(N)=O)c2=O)C(=O)CCC3)cc1	1.15	1.91
CCOC(=O)c1c(NC(=O)c2ccc(OC)cc2)sc2c1CC(C)CC2 (stereo not drawn)	1.14	4.89
Cc1ccc2nc(Nc3nc(-c4ccccc4)cc(=O)[nH]3)nc(C)c2c1	1.05	0.345
CCC1=Nc2cc(C(=O)NCCCN3CC(C)CC(C)C3)ccc2Sc2ccccc21 (stereo not drawn)	1.3	0.682
Cc1sc2ncn(CC(=O)NCC(=O)Nc3cccc(Cl)c3)c(=O)c2c1C	1.01	0.194
O=C1c2cccnc2C(Nc2ccc(Br)cc2)N1C1CCCCC1 (stereo not drawn)	0.913	-1.12
CC(=O)NS(=O)(=O)c1ccc(NC(=O)c2c(-c3ccccc3)noc2C)cc1	1.02	0.021
O=C(Nc1c(-c2cccs2)nc2ccccn12)c1ccc2ccccc2c1	1.02	0.568
CCOC(=O)c1cnn(-c2ccccc2Cl)c1C1CCN(C(=O)OC(C)(C)C)CC1	1.01	0.423
CC1(C)CC(=O)C2=C(C1)N(c1ccc(F)cc1F)C(=O)CC2c1ccsc1 (stereo not drawn)	1.52	4.97
O=C(CCN1C(=O)COc2ccccc21)NCCCN1CCCC1	1.04	2.1
COc1ccc(-c2nc(CS(=O)(=O)CC(=O)NCCCOC(C)C)c(C)o2)cc1	1.01	0.321
O=C(NCCCN1CCCCC1)C1CCCN(c2nnc(-n3cccc3)s2)C1 (stereo not drawn)	0.991	-0.195
O=C(O)Cc1sc(Nc2ccc(F)cc2)nc1-c1ccccc1	0.966	-0.864
COc1ccc(NC(=O)CN2C(=O)CC(c3ccccc3)Sc3ccccc32)cc1OC (stereo not drawn)	0.773	-3.81
CC1CCCCC1NC(=O)c1csc2c1CCCCC2 (stereo not drawn)	1.02	0.5
CCCCC(NC(C)=O)c1nc2ccccc2n1Cc1ccccc1F (stereo not drawn)	0.908	-0.676
CC1=CC(C)C2(CO)COC(c3ccccc3)C1C2C (stereo not drawn)	1.08	0.145
COc1cccc(-c2nc(SCC(=O)Nc3ccc4c(c3)OCO4)c(-c3ccccc3)[nH]2)c1	0.854	-3.9
CCc1ccc(NS(=O)(=O)c2ccc3[nH]cc(C(=O)NC4CCC(C)CC4)c(=O)c3c2)cc1 (stereo not drawn)	1	0.00602
O=C(CC1C(=O)N(c2ccccc2)C(=O)N1CCc1cccs1)Nc1ccc(F)cc1 (stereo not drawn)	1.07	2.8
Cc1ccc(CSc2nnc(Cc3cc(=O)[nH]c(=O)[nH]3)n2-c2ccc(Cl)cc2)cc1	0.864	-2.08
COc1ccc(NC(=O)C2CCN(S(=O)(=O)c3ccc(OC)c(OC)c3)CC2)cc1OC	1.06	2.49
Cc1ccc(Cl)cc1N(C)C(=O)c1cc2c(s1)-c1ccccc1OC2	1.13	6.39
CCc1ccccc1NC(=O)[C@H](CSCc1ccccc1)N1Cc2ccccc2C1=O	0.915	-1.94
O=C(COc1ccc(Br)cc1)Nc1ccc2oc(-c3ccncc3)nc2c1	0.968	-0.382
CCc1ccc(NC(=O)N(CCN2CCOCC2)C2CCN(C(C)=O)CC2)cc1	0.972	-0.369
COc1ccc(CNC(=O)c2ccc3nc(N4CCC(C)CC4)sc3c2)cc1	0.96	-0.868
CCc1cccc(NC(=O)c2cnn(-c3ccc(F)cc3)c2C2CCN(C(=O)OC(C)(C)C)CC2)c1	1.05	1.81
COc1ccc(OC)c(NC(=O)CNC(=O)Cn2cnc3sc(C)cc3c2=O)c1	1.01	0.409
CCOC(=O)c1cnc2ccc(OCC)cc2c1Nc1ccc(F)cc1Cl	0.832	-0.189
COc1ccc(CCNC(=O)c2c(-c3c(F)cccc3Cl)noc2C)cc1OC	1.02	0.349
Cc1ccc(NC(=O)c2cnc3ccccn3c2=O)cc1	0.938	-0.876
O=C(Nc1nnc(-c2ccc(F)cc2)o1)c1ccc(S(=O)(=O)N2CCOCC2)cc1	0.00366*	-4.38*
CN(Cc1ccccc1)C(=O)C1CCN(C(=O)c2cc3sccc3n2Cc2ccc(F)cc2)CC1	0.921	-3.19
CC(=O)N1CCc2cc(S(=O)(=O)NCC(=O)N3CCN(c4ccc(Cl)cc4)CC3)ccc21	1.02	0.883
CC1=C(C(=O)Nc2ccc(C)cn2)C(c2ccccc2C)C2=C(CC(C)(C)CC2=O)N1 (stereo not drawn)	1.03	0.344
CCCCOc1ccc(C(=O)Nc2nc(-c3ccc(CC)cc3)cs2)cc1	1.07	1.07
Clc1cccc(OCCN2CCN(c3ccccc3)CC2)c1	1.4	3.59
CCCCC(CC)C(=O)Nc1ccc(S(=O)(=O)Nc2nccc(C)n2)cc1 (stereo not drawn)	1.2	1.69
COc1cc2ccccc2cc1C(=O)Nc1nc2c(C)cc(C)cc2s1	1.17	1.44
COc1ccc(CCNC(=O)c2cnc3scc(C)n3c2=O)cc1OC	0.872	-1.52
Cc1ccc(-n2nnnc2S(=O)(=O)CC(=O)N2CCCCC2)cc1	0.974	-0.424
CCCCNC(=O)C1CCN(C(=O)C2CCN(S(=O)(=O)c3ccc(C)cc3)CC2)CC1	0.919	-1.6
CCOCCn1cnc2sc(C(=O)Nc3ccc(F)cc3F)c(C)c2c1=O	1.1	1.04
Fc1ccccc1-c1nc(N2CCCCC2)c2ccccc2n1	1.06	0.0979
COc1ccc(-c2nc(CSCC(=O)NCCc3ccc(C)cc3)c(C)o2)cc1OC	0.895	-2.4
CCC(C)NC(=O)c1cc(-c2ccc3c(c2)OCO3)on1 (stereo not drawn)	1.22	1.74
CC1(C(=O)NC2CCCCC2)CCC(=O)N1Cc1ccccc1 (stereo not drawn)	0.798	-3.31
CN1CCc2c(n(CC(O)CN3CCN(CCO)CC3)c3ccccc23)C1=O (stereo not drawn)	0.944	-1.15
CCCN(CCC)CCCNC(=O)c1cc2c(-c3ccc(Cl)cc3)nn(C)c2s1	1.19	0.813

Part of the list above, with two lines to a compound:
Under each structure – CBX7 AlphaScr, CBX7 AlphaScr z-score
COc1cc2ccccc2cc1C(=O)Nc1nc2c(C)cc(C)cc2s1
 : 1.17, 1.44
CCCCNC(=O)C1CCN(C(=O)C2CCN(S(=O)(=O)c3ccc(C)cc3)CC2)CC1
 : 0.919, -1.6
CC(=O)N1CCc2cc(S(=O)(=O)NCC(=O)N3CCN(c4ccc(Cl)cc4)CC3)ccc21
 : 1.02, 0.883
CCc1ccc(NC(=O)N(CCN2CCOCC2)C2CCN(C(C)=O)CC2)cc1
 : 0.972, -0.369
CN(Cc1ccccc1)C(=O)C1CCN(C(=O)c2cc3sccc3n2Cc2ccc(F)cc2)CC1
 : 0.921, -3.19

The list continues.
SMILES	CBX7 AlphaScr	CBX7 AlphaScr z-score
Cc1ccc2nc(-c3ccc(C)c(NC(=O)c4cc5ccccc5o4)c3)oc2c1	0.991	-0.113
CCc1ccccc1NC(=O)c1ccc(CNc2c(N3CCC(C)CC3)c(=O)c2=O)cc1	1.02	0.715
Cc1ccc(CNS(=O)(=O)c2cn(C)cn2)cc1	1.03	0.467
CCN1CCN(C(c2cccs2)C(C)NC(=O)C(=O)NCc2ccccc2OC)CC1 (stereo not drawn)	1.21	2.23
O=C(CC1C(=O)N(c2ccc(F)cc2)C(=O)N1Cc1ccc(F)cc1)Nc1ccc(Cl)cc1 (stereo not drawn)	1.06	2.11
Cc1ccc(NC(=O)CCc2nnc3ccc(NCCN4CCOCC4)nn23)cc1	1	0.0674
O=C(NCCc1ccc(Cl)cc1)c1ccc2c(c1)N(Cc1ccc(F)cc1)C(=O)CS2	0.899	-1
CCCC1C2c3ccccc3C(c3ccccc32)C1C(=O)Nc1ccc(OCC)cc1 (stereo not drawn)	0.859	-0.555
CN(CCCNC(=O)Cn1nc(Cc2ccncc2)c2ccccc2c1=O)Cc1ccccc1	0.999	-0.0221
COc1ccc(CCNC(=O)c2c[nH]n3c(=O)c(Cc4ccc(F)cc4Cl)c(C)nc23)cc1OC	1	0.0263
COc1ccc(-c2nc(CSCC(=O)NC3CCCc4ccccc43)c(C)o2)cc1OC (stereo not drawn)	0.897	-1.97
CCN(CC)S(=O)(=O)c1ccc2oc(C(=O)Nc3ccc(F)c(F)c3)c(C)c2c1	1.01	0.465
CCCCn1c(CNC(=O)COC)nc2ccccc21	1.01	0.403
COc1ccc(Cl)cc1NC(=O)CSc1nnc(COc2ccc3c(c2)CCCC3)o1	0.912	-1.01
CC(C)(C)c1ccc(C(=O)Nc2ccc(S(=O)(=O)Nc3cnc4ccccc4n3)cc2)cc1	0.804	-0.26
O=C(Nc1cccc(Cl)c1)c1nn2c(C(F)(F)F)cc(-c3ccccc3)nc2c1Br	1.08	0.545
CC1=Nc2cc(C(=O)NCc3ccccc3Cl)ccc2Sc2ccc(Cl)cc21	0.93	-0.751
OC(COc1ccc2ccccc2c1Br)Cn1c(C(F)(F)F)nc2ccccc21 (stereo not drawn)	0.986	-0.555
CCCN1Cc2cccc(C(=O)Nc3ccccc3C)c2C1=O	0.983	-0.224
CC(=O)N1CCc2cc(S(=O)(=O)NCCC(=O)N3CCN(c4ccc(Cl)cc4)CC3)ccc21	1.04	0.79
CCOc1ccc(NS(=O)(=O)c2ccc3[nH]cc(C(=O)NCc4cccnc4)c(=O)c3c2)cc1	0.87	-0.565
CC(C)(CO)NCc1ccccc1OCc1ccc(Cl)cc1	1.01	0.168
CCc1cccc(C)c1NC1=NS(=O)(=O)c2ccccc21	1	0.0611
CCC(=O)N1CCc2cc(S(=O)(=O)NCCC(=O)N3CCc4ccccc43)ccc21	1.05	1.88
Cc1cc(C)n2c(Nc3c(C)cccc3C)c(-c3ccsc3)nc2n1	1.16	3.16
COc1cccc(NC(=O)CCc2nc(-c3ccc(C)cc3)no2)c1	0.977	-0.0308
CCCCC(=O)Nc1c(-c2ccc(OC)cc2)nc2ccccn12	0.975	-0.726
Cc1ccc(Nc2nc(C)nc3sc(C)c(C)c23)c(Br)c1	0.963	-0.996
CCOc1ccc(NC(=O)c2cc3c(n(-c4ccc(Cl)cc4)c2=O)CC(C)(C)CC3=O)cc1	0.996	-0.216
Cc1ccc(-n2nc(C)c3c(C)c(CCC(=O)NCCN4CCOCC4)c(C)nc32)cc1	1.14	1.06

Four entries from above, ordered by the number in CBX7 AlphaScr z-score, highest first:
Structure	CBX7 AlphaScr z-score
CCCCn1c(CNC(=O)COC)nc2ccccc21	0.403
COc1ccc(CCNC(=O)c2c[nH]n3c(=O)c(Cc4ccc(F)cc4Cl)c(C)nc23)cc1OC	0.0263
CC(C)(C)c1ccc(C(=O)Nc2ccc(S(=O)(=O)Nc3cnc4ccccc4n3)cc2)cc1	-0.26
Cc1ccc(Nc2nc(C)nc3sc(C)c(C)c23)c(Br)c1	-0.996

Next part:
SMILES	CBX7 AlphaScr	CBX7 AlphaScr z-score
COc1ccc(OC)c(NC(=O)c2csc3c2CCCC3)c1	1	0.154
COc1ccc(S(=O)(=O)N2CCC(C(=O)Nc3ccc(OC)cc3OC)CC2)cc1	1.05	2.31
Cc1ccc(-c2nn(CC(=O)NCCc3ccccc3)c(=O)c3ccccc23)cc1	0.994	-0.0855
O=C(C1CCCCC1)N1CCN(c2nc(-c3ccccc3Cl)c3cc(Br)ccc3n2)CC1	0.853	-1.44
COc1ccc(N2CCN(c3cc(=O)n(Cc4ccc(F)cc4)c(=O)[nH]3)CC2)cc1	0.965	-0.67
Cc1ccc(CNC(=O)CCN2C(=O)COc3ccc(C)cc32)cc1	1.24	3.97
CCOC(=O)C1CCCN(c2c(N3CCN(C4CCCCC4)CC3)c(=O)c2=O)C1 (stereo not drawn)	0.965	-0.797
Cc1nc2c(C(=O)N3CCCC3)cnn2c(C)c1Cc1ccc(F)cc1Cl	0.915	-2.11
Cc1ccc2n1CCN(c1nc(-c3ccc(Cl)cc3)cs1)C2C (stereo not drawn)	0.991	-0.218
NS(=O)(=O)c1ccc(C23CC4CC(CC(C4)C2)C3)cc1	0.962	-1.05
